gsp ag – gsp mutant agonism | Potency, µM (doses to about 76.9 µM), for the others: at the top dose activation (cAMP increase), actives largely listed as activators | gsp mutant cells, cAMP HTRF, 30 min; control for the full effect not named in the record | AID 624287 | 0.13% of 340,000 active; active = well fitted activation curve with a large enough effect; inconclusive = small, poorly fitted or top-dose-only effect, or another doubt; inactive = no such curve, though single readings can be large or run the other way; cell line not stated here;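 further: phosphodiesterase inhibitor Ro 20-1724 added with compounds to block cAMP breakdown; potency means the concentration at half of the fitted maximal effect; nearly all actives have a fitted effect of over 60% in size; about a fifth of the inactives were tested at one dose only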
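Cells in DMEM/10% FBS with G418 were pretreated with compounds in DMSO plus […] (300 uM stock) for 30 min at 37C. cAMP was measured by HTRF (cAMP-d2 plus anti-cAMP antibody-K) after 30 min at room temperature.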
gsp antag – antagonizes gsp, the McCune-Albright syndrome mutation; gsp-mutant cells, cAMP HTRF, 30 min; control for the full effect not named in the record; Potency, µM (series often up to 76.9 µM), for the others: top-dose activity change, negative = inhibition, hits mostly inhibitors; 0.4% of 340,000 active; AID 624288; active = falling curve of any shape with a large fitted effect; inconclusive = falling curve, mostly with a smaller effect; inactive = flat or rising curve; cell line not stated here;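 further: intracellular cAMP measured with PDE inhibitor Ro 20-1724 present during compound exposure; potency means the concentration at half of the fitted maximal effect; on the % scale 0 is the no-effect control and ±100 the full control effect; nearly all actives have a fitted effect of over 65% in size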
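Cells in G418 medium, seeded 16-24 h, 37C; buffer exchange to DPBS + 1 mM CaCl2, 0.5 mM MgCl2, 0.05% BSA; cpds in DMSO + […] (300 uM stock), 30 min 37C; HTRF cAMP detection.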
TRPML1 agonist – agonists of human TRPML1 channel; 0.12% of 410,000 active; activation, % (no concentration beside the values); AID 624414; TRPML1-expressing cells, Ca2+ dye fluorescence, FDSS; host cell line not named in the record; reference of the full effect not given here; Q9GZU1; in the data active = activation above about 50%; inconclusive = about 30% to 50%; inactive = below about 30%; further: 0% is about no effect; the text of the record puts the active cut at 80%
Target sequence (Q9GZU1 whole entry, looked up): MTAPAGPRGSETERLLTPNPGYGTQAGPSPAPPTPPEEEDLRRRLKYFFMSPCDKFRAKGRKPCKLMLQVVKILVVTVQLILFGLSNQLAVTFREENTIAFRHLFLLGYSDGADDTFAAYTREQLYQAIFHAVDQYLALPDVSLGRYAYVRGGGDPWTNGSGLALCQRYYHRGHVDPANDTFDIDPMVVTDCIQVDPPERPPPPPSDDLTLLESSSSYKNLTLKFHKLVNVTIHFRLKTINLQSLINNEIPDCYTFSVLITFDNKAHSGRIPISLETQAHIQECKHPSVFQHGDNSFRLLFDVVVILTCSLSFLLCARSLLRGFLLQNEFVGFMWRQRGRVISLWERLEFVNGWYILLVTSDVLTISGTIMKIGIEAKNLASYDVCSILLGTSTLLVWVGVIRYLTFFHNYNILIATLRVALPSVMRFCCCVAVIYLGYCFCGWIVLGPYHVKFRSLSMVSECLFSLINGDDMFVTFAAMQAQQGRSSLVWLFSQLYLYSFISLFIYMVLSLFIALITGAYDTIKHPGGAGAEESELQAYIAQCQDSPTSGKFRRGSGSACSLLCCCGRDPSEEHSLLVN
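TRPML1-DL cells, Tet-induced overnight (~16 h, 37 degrees C), loaded 45-90 min at room temperature with Ca8 no-wash calcium dye plus quencher. FDSS fluorescence: 10 s baseline, compound pin-transfer, 110 s agonist read, then EC80 54-4 (4uM final) and 110 s antagonist read.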
ClpP mod – qHTS Assay for Activators of ClpP. Potency, µM (titrated, usually from 57.5 µM), inactives show at the highest dose activity change, negative = active. ATP-dependent Clp protease proteolytic subunit (Bacillus subtilis (strain 168)), P80244. AID 651965, 2013. 1.9% of 340,000 active. purified B. subtilis ClpP, FRET peptide cleavage, 20 min; active = well fitted falling curve with a large enough effect; inconclusive = small, poorly fitted or top-dose-only effect; inactive = no such curve, though single readings can be large or run the other way; further: potency means the concentration at half of the fitted maximal effect; the source files actives as falling curves though it sought activators and does not explain the sign; nearly all actives have a fitted effect of over 65% in size; many hits overshoot -100%
Target sequence (P80244 whole entry, looked up): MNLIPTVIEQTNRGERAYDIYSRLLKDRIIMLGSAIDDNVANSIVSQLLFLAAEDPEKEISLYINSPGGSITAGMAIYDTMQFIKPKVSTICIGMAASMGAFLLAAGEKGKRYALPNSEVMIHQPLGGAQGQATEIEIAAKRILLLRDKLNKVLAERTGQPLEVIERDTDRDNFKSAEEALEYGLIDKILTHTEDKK
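ClpP 10 microg/mL final, pH 8 Tris/KCl buffer with BSA, glycerol, Tween-20; compound pinned in; FRET-FV substrate; RT 20 min; Ex320/Em430; ΔFRET vs ADEP 5.8 microM, DMSO, no enzyme.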
Menin-MLL FL inh – inhibitors of human menin-MLL interaction, wild-type MLL peptide; Fluorescence polarization, fluorescein-MLL peptide displacement from menin; 290,000 tested, under 10 active; FP activity change, % at 61.4 µM; inconclusive = falling polarisation curve, or a change in total fluorescence; inactive = total fluorescence flat and polarisation flat or rising; no compound was filed as active; the % refers to the polarisation; negative = inhibition;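 further: % of control where 0% means no effect; inhibitors lower the polarisation; unlabelled MLL peptide was the positive control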
TRPML1 inh – inhibitors of human TRPML1 channel | Q9GZU1 | TRPML1-inducible cells, Ca2+ dye fluorescence, FDSS; active compounds read low; inhibition of EC80 agonist-evoked calcium signal | activity change, negative = inhibition, % (concentration not given with the values) | 0.02% of 390,000 active | AID 624415; in the data active means activity change below about -50%; inconclusive means about -30% to -50%; inactive means above about -30%;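 further: stimulus is agonist 54-4 at its EC80 concentration; on the % scale 0 is the no-effect control and ±100 the full control effect; the text of the record puts the active cut at -80%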
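TRPML1-DL cells, Tet-induced overnight (~16 h, 37 °C) at 1,500 cells/well, were loaded with Ca8 no-wash dye plus quencher for 45-90 min at room temperature. Compounds were pinned during FDSS kinetic reading; agonist 54-4 at EC80 (4 uM final) then added.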
The depositor's hits bear a star; ? = inconclusive; . = no result given; & = joins results of further samples; [ ] = another dose, or the depositor's remark.

SMILES | gsp ag | gsp antag | TRPML1 agonist | ClpP mod | Menin-MLL FL inh | TRPML1 inh
CCOC(=O)C1CCN(CCC(=O)Nc2ccccc2Cl)CC1 | ? | 10% | -0.4&5.6 | -5.3%&0.9% | 0.7 | -14&-14
CCc1ccc(C2c3[nH]c4ccccc4c3CCN2C(=O)c2cc[n+]([O-])cc2)cc1 (configuration not stated) | 1% | -3% | 1.9 | -3.6% | 4.4 | 8
CCOc1ccc2nc(SCC(=O)NNC(=O)c3ccco3)c(C)cc2c1 | 9% | -9% | 2.3 | . | -2.7 | 39
COC(=O)c1ccc(COC(=O)c2cccn2C)o1 | -12% | 14% | 1.1 | . | 0.0 | 0
CCN(c1ccc(C)cc1C)S(=O)(=O)c1nnc(NC(=O)C(C)C)s1 | 2% | -8% | . | -6.2% | -3.1 | .
CCOc1cccc(CN2CCCC(C(=O)Nc3cccc(-n4cccn4)c3)C2)c1 (configuration not stated) | 4% | -2% | 1.0 | -1.4% | . | 1
CCCSc1nnc(CNC(=O)C23CC4CC(CC(C4)C2)C3)n1Cc1ccccc1 | -48%[inhibitor] | -7% | -0.6 | -3.0% | -3.2 | 16
CC(=O)NC(NC(=S)Nc1c(C)n(C)n(-c2ccccc2)c1=O)C(Cl)(Cl)Cl (configuration not stated) | -73%[inhibitor] | 7% | 5.1 | -1.0% | -0.6 | 27
CC(C)CC(=O)NC(=S)NNC(=O)c1cccc([N+](=O)[O-])c1 | -21%[15.4 µM] | 5% | 6.1 | . | -0.8 | 36
NS(=O)(=O)c1ccc(CNC(=O)/C=C/c2ccc(Cl)c(Cl)c2)cc1 | -10% | -4% | -0.6 | -0.7% | 1.2 | 9
CC(C)=C1C2CCC1C(C(=O)Nc1cc(C)cc(C)c1)C2C(=O)O (configuration not stated) | -5% | 6% | -0.5 | . | 1.5 | -24
Cc1ccc(S(=O)(=O)N2CCCCC2)cc1C(=O)Nc1cccnc1 | 12%[15.4 µM] | 11% | -0.4 | . | -1.3 | -5
C=CCNC(=S)N1CCC(C(=O)c2ccc(F)cc2)CC1 | 4%[15.4 µM] | 0% | -1.2 | -1.7% | ? | 24
CC(=O)Nc1ccc(OC(=O)Oc2ccc(NC(C)=O)cc2)cc1 | 4% | -1% | 2.6 | -0.5% | 0.4 | 4
Cc1ccc(N2CC(C(=O)Nc3ccccn3)CC2=O)cc1 (configuration not stated) | -32%[inhibitor] | 11% | -0.7 | 1.1% | 3.3 | -3
CCN1c2ccccc2-c2nc3ccccc3n2C1c1ccccn1 (configuration not stated) | -1% | -18% | -1.3 | ? | -1.3 | -5
CN(Cc1cccc(Cl)c1)C(=O)C1CSC2(C)CCC(=O)N12 (configuration not stated) | -1%[15.4 µM] | 13% | -0.7 | 1.3% | . | -10
Cc1cccc(N2C(=O)CC(N3CCN(c4ccc(Cl)cc4)CC3)C2=O)c1 (configuration not stated) | -14% | 9% | -0.7 | -0.5% | -3.6 | 11
Nc1ncnc2c1ncn2[C@@H]1O[C@H](CNCc2ccc(OCC(=O)Nc3nccs3)cc2)[C@@H](O)[C@H]1O | . | 13% | -0.9 | -0.7% | . | 21
CC(Sc1nnc2c(n1)[nH]c1ccccc12)C(=O)N(C)C1CCCCC1 (configuration not stated) | -5% | ? | 1.4 | . | -6.7 | -1

Continued (2 carried over from the part before).
SMILES | gsp ag | gsp antag | TRPML1 agonist | ClpP mod | Menin-MLL FL inh | TRPML1 inh
Nc1ncnc2c1ncn2[C@@H]1O[C@H](CNCc2ccc(OCC(=O)Nc3nccs3)cc2)[C@@H](O)[C@H]1O | . | 13% | -0.9 | -0.7% | . | 21
CC(Sc1nnc2c(n1)[nH]c1ccccc12)C(=O)N(C)C1CCCCC1 (configuration not stated) | -5% | ? | 1.4 | . | -6.7 | -1
O=C(COc1cccc(NC(=O)c2ccccc2)c1)c1ccccc1 | ? | -9% | 6.9 | -2.5% | 0.5 | 3
Cc1c(Cl)cccc1N1CC(C(=O)Nc2nccs2)CC1=O (configuration not stated) | -2% | 11% | 0.6 | 0.5% | 1.6 | 21
Cc1ccc(-c2nc(NC(=O)CSc3ccc4ccccc4n3)ns2)cc1 | -4% | 5% | 1.6&0.5 | -7.0%&-12% | -0.2 | -13&-7
O=C(c1ccccc1)C1CCN(C(=O)Nc2ccccc2)CC1 | 10%[15.4 µM] | 0% | 0.2 | . | 6.1 | 23
COCCNC(=O)c1c(N)n(-c2cccc(C)c2)c2nc3ccccc3nc12 | 17% | -20% | -0.1 | -16% | -1.6 | -2
CCc1ccc(NC(=O)C2(C)Cc3ccccc3C(=O)O2)cc1 (configuration not stated) | -13%[15.4 µM] | . | -0.5 | . | 0.0 | 11
Cc1ccc(C(=O)N/C(=C\c2cccs2)C(=O)N2CCCCCC2)cc1 | 13% | -6% | -0.5 | 1.6% | -2.8 | -9
Cc1ccccc1NS(=O)(=O)c1ccc(C(=O)N2CCC2)cc1 | 24% | 17% | 0.2 | -0.8% | . | -7
CC1(c2ccc(OC(F)F)cc2)NC(=O)N(CC(=O)Nc2cccc(S(N)(=O)=O)c2)C1=O (configuration not stated) | 10% | 10% | . | -2.7% | 4.3 | .
COCCNC(=O)C1CCCN(C(=O)c2cncc(Br)c2)CC1 (configuration not stated) | . | . | -0.3 | -1.8% | . | 14

Single values from above:
CCc1ccc(NC(=O)C2(C)Cc3ccccc3C(=O)O2)cc1 (configuration not stated) in TRPML1 agonist → -0.5
COCCNC(=O)c1c(N)n(-c2cccc(C)c2)c2nc3ccccc3nc12 in gsp antag → -20%
COCCNC(=O)C1CCCN(C(=O)c2cncc(Br)c2)CC1 (configuration not stated) in TRPML1 agonist → -0.3
Cc1ccccc1NS(=O)(=O)c1ccc(C(=O)N2CCC2)cc1 in gsp antag → 17%
Cc1ccc(-c2nc(NC(=O)CSc3ccc4ccccc4n3)ns2)cc1 in gsp ag → -4%

The listing continues:
SMILES | gsp ag | gsp antag | TRPML1 agonist | ClpP mod | Menin-MLL FL inh | TRPML1 inh
O=C(NCCCSc1ccccc1)c1cccnc1 | -20% | 3% | -0.9 | -0.9% | . | 2
Cc1ccnc2nc(C(=O)NCc3ccccc3)nn12 | -7%[15.4 µM] | 19% | -0.1 | . | -0.5 | -14
O=C(NCCNC(=O)c1ccccn1)c1ccc(F)cc1 | -2%[15.4 µM] | 14% | -0.5 | . | ? | -7
CC(C)COc1cccc(C(=O)Nc2ccc(-c3nc4ncccc4o3)cc2)c1 | . | . | -0.3 | -9.1% | . | 5
COc1ccc(CN2COc3ccc4c(-c5ccccc5)cc(=O)oc4c3C2)cc1 | . | . | 1.0 | -3.4% | . | -13
CCOc1ccccc1N1CCN(C(=O)CC(C)(C)C)CC1 | ? | 3% | 0.1 | -0.6% | -2.5 | -5
CNc1c(N=Cc2cccnc2)c(=O)n(C)c(=O)n1C | -12% | 16% | 0.5 | -3.5% | 2.4 | -4
Oc1[nH]c2ccc(Br)cc2c1N=NC(=S)Nc1ccc(F)cc1 | 2%[15.4 µM] | -17% | 2.6 | . | 0.9 | 30
CCOc1ncccc1C(=O)Nc1cc(S(=O)(=O)N2CCCCC2)ccc1Cl | -14% | 15% | -0.4 | 32µM* | . | -19
O=C(O)c1cc(N2N=C(C(F)(F)F)/C(=C/C=C/c3ccco3)C2=O)ccc1Cl | -18%[15.4 µM] | 3% | 0.2 | . | ? | -5
Cn1c(=O)c2cn(-c3ccccc3)cc2n(C)c1=O | -30% | -12% | 1.7 | -15% | 2.3 | -6
COc1ccc(C(=O)NC2CCN(Cc3c(F)cccc3Cl)CC2)cc1OC | 0% | -8% | 0.2 | -5.7% | -6.6 | 8
CC1(C)NC(C)(C)c2nonc2/C1=N\O | -2% | 7% | -0.2 | -2.2% | 4.3 | 9
COc1ccc(S(=O)(=O)NCCc2nnc3ccc(SCC(=O)Nc4cc(C)cc(C)c4)nn23)cc1 | . | . | 0.4 | -2.6% | . | 25
N#Cc1cccc(NC(=O)CNc2cc(S(=O)(=O)N3CCOCC3)ccc2N2CCCC2)c1 | -1%[15.4 µM] | -12% | -1.1 | . | . | 17
O=C(NC1CCN(CC(=O)N(c2ccccc2)c2ccccc2)CC1)c1ccc([N+](=O)[O-])cc1 | 2%[15.4 µM] | -8% | -1.4 | -6.5% | -5.8 | -1
CCCc1cc(=O)n2[nH]c(NCc3c(Cl)cccc3Cl)nc2n1 | ? | 1% | -0.7 | -6.0% | 0.9 | 3
CC1=NN(c2ccccc2)C(=O)C1N=Nc1ccc(N)cc1 (configuration not stated) | -48%[inhibitor] | -3% | -1.4 | 0.6% | 4.8 | 8
O=[N+]([O-])c1ccc2ccn(C3OCC(O)C(O)C3O)c2c1 (configuration not stated) | -6%[15.4 µM] | 14% | 0.3 | . | -0.1 | -6
COC(=O)C1(C)COP(=O)(NC23CC4CC(CC(C4)C2)C3)OC1 (configuration not stated) | 8% | 7% | 0.1 | -0.7% | . | 15
O=C(C1CCCCC1)N1CCN(c2ccnc3cc(Cl)ccc23)CC1 | 4%[15.4 µM] | 35µM* | 2.4 | . | 5.5 | 23
CCOC(=O)C1CCN(S(=O)(=O)c2cc(Cl)c(C)cc2OC)CC1 | 4% | 2% | 0.0 | -0.7% | 2.7 | 0
CCCn1c(CCC(=O)Nc2cccc(C)c2C)nc2cccnc21 | . | . | 1.5 | -3.3% | . | 14
CCOCCOC(=O)COc1ccc2c(-c3ccccc3)cc(=O)oc2c1 | 9% | -18% | -0.4 | -2.4% | -0.4 | -6
Cc1ccc2nc(NC(=O)c3nc(SCc4ccccc4F)ncc3Cl)sc2c1 | . | . | -0.4 | 1.8% | . | 6
COc1ccc(Cc2nnc(SCC(=O)c3ccc4c(c3)NC(=O)CO4)o2)cc1 | 1% | -7% | -0.7 | 0.8% | . | 10
Cc1ccccc1-n1c(SCc2cc(=O)n3ccccc3n2)nc2[nH]ncc2c1=O | ? | -1% | 2.1 | ? | 3.8 | 30
COc1cccc(C2C(C(=O)c3sc(C)nc3C)=C(O)C(=O)N2CCN2CCOCC2)c1 (configuration not stated) | 7% | 7% | -0.9 | -0.4% | 2.2 | 7
COc1ccc(C(=O)N(Cc2ccco2)Cc2ccccc2F)cc1Cl | . | . | 4.4 | 0.5% | . | 21
O=C(Cn1nnc(-c2ccc3c(c2)OCO3)n1)NCc1ccco1 | -15% | -2% | 1.7 | -5.1% | 4.1 | 2
COc1ccccc1NC(=O)Cn1c(=O)n(-c2ccccc2)c(=O)c2oc3ccccc3c21 | 4% | -10% | 1.7 | -6.1% | 9.8 | 8
CC(C)(C)c1ccc(-c2csc(NC(=O)CN3C(=O)NC4(CCCCC4)C3=O)n2)cc1 | -24% | -1% | -0.7 | -2.1% | 18 | 3
CN1C(=O)C(C)(C)c2cc(S(=O)(=O)N3CCCC3C(=O)NCc3ccc(F)cc3)ccc21 (configuration not stated) | 21% | 11% | -0.8 | -0.4% | 0.0 | 28
